Screens as filed in PubChem.
Mtb growth – M. tuberculosis H37Rv growth inhibitors, H37Rv strain (AID 1626) | M. tuberculosis H37Rv growth inhibition; higher % means a stronger effect | hit rate 0.95% among 220,000 | inhibition, % at 10 µM; hits with a dose series show IC50 in µM;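 active = confirmed in a dose series; inconclusive = inhibition above 80% but not taken into the dose series; inactive = below 80% or under 30% at every dose of the series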;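 also: bacteria incubated seven days before Alamar blue readout; 0% = bacteria only wells and 100% = bacteria with antibiotic wells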
RecA splice inh – Mtb RecA intein splicing inhibitors, primary screen, biochemical, fluorescence, HTS; Protein RecA (Mycobacterium tuberculosis (strain ATCC 25618 / H37Rv)), P9WHJ3; cell-free RecA intein splicing; inhibition, %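 (about 9 µM by stock and volumes)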; hit rate 0.75% among 290,000; AID 2221, 2009; in the data active = inhibition above about 30%; inconclusive = no clear call, values can overlap the other calls;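 also: 0% = vehicle wells and 100% = reference inhibitor control wells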
Target sequence (P9WHJ3 whole entry, looked up, canonical isoform): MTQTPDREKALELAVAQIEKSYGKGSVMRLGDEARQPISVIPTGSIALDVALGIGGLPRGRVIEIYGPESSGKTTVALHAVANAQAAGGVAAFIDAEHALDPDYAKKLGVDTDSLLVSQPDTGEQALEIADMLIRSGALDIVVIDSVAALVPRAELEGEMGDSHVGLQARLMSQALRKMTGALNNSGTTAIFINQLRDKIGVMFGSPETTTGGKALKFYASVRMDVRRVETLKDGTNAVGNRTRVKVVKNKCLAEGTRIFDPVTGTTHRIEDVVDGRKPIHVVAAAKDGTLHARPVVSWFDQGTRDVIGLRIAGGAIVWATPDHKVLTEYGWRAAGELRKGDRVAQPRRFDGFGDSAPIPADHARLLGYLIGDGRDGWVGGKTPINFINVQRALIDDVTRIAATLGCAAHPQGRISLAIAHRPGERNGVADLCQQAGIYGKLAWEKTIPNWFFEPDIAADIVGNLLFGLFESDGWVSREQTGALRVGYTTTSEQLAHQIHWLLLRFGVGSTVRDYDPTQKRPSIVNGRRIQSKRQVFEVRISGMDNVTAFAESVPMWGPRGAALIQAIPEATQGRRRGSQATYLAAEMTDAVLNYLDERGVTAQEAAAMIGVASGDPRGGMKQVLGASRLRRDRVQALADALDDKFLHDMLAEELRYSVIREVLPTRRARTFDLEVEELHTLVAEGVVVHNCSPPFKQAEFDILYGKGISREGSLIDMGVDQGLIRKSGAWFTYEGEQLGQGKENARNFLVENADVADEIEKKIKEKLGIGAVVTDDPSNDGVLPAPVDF
Mtb bLac sens – beta-lactam sensitization of Mtb H37Rv, H37Rv; AID 434955, 2010; hit rate 0.27% among 330,000; inhibition, % at 25 µM; M. tuberculosis H37Rv growth with meropenem, percent inhibition; hits of this screen are not shown here;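 active = about 74% or more and at least 40 points above the plate without the antibiotic, then above 30% in a dose series; inconclusive = first-round hits that could not be retested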;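 also: growth measured after seven days incubation then overnight dye step; 0% = bacteria only wells and 100% = bacteria with antibiotic; twin plates without the antibiotic show which effects depend on it; some results filed as inactive read as strong as hits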
Arbovirus inh – antivirals against arbovirus infection, primary screen, cell-based, full library, 10K replicate subset. arbovirus infection cell-based antiviral screen. hit rate 0.37% among 200,000. AID 1251, 2008. inhibition, % at 10 µM;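 active = inhibition from about 30%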;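 also: bluetongue infection of BSR cells; cell survival read as ATP light after 72 h; 0% = infected wells without compound and 100% = uninfected wells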
YopH PTP inh – YopH tyrosine phosphatase inhibitors, primary screen, biochemical, fluorescence Ex485/Em525. YopH tyrosine phosphatase [Yersinia enterocolitica]. inhibition, %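 (about 10 µM by stock and volumes)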. hit rate 0.16% among 140,000. AID 898, 2007;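 active = inhibition of 50% or more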;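 also: controls were vehicle for no effect and minimum signal wells for full effect; inactives centre near -20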
Arbovirus inh repeat – recorded beside Arbovirus inh, whose call it bears; inhibition, %; measured here: 10K subset replicate screen; many hits read low in the repeat;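 first of two repeat runs on a subset; 0% = infected and 100% = uninfected wells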
* marks the source's active call; other numbers are inactive results; ? = inconclusive; nt = not tested or not shown.

SMILES	Mtb growth	RecA splice inh	Mtb bLac sens	Arbovirus inh	YopH PTP inh	others
CC(NC(=O)c1cc(F)c(F)cc1Cl)C1CC2CCC1C2 (centres undefined)	nt	1.7	9	nt	nt
Cc1c(NC(=O)c2n[nH]c(=O)c3ccccc23)c(=O)n(-c2ccccc2)n1C	-7%	1.7	4	2	-7
Cc1nn(CC(=O)N2CCN(c3cccc(C(F)(F)F)c3)CC2)c(=O)c2cccn12	nt	2.2	3	nt	nt
Cc1ccc(-c2nnc(SCC(=O)CC(=O)Nc3ccccc3)n2C)cc1	-8%	6.6	-8	-1	20
C=CCNC(=S)NNC(=O)c1ccc(Br)cc1	-2%	3.7	1	8	-19
COc1ccc(CN(Cc2cc3cccc(C)c3n3nnnc23)C(=O)N2CCOCC2)cc1	4%	9.9	0	-3	nt
CC(=O)c1ccc(NS(=O)(=O)c2ccc3c(c2)N(C(C)=O)CCO3)cc1	nt	-0.6	1	nt	nt
CN1C(=O)/C(=C/c2ccc3c(c2)OCO3)N=C1c1ccccc1	52%	-6.7	0	-6	2
COc1ccc(OC)c(Nc2nc(NCCO)c3ccccc3n2)c1	nt	-3.4	4	nt	nt
O=[N+]([O-])c1ccn(-c2nc(-c3ccccc3)cc(C(F)(F)F)n2)n1	-8%	-0.6	-2	5	nt
C/C(=N\NS(C)(=O)=O)c1ccccc1	3%	0.4	8	2	-11
O=C1[C@@H]2Cc3ccccc3CN2C(=O)N1c1cccc(F)c1	-3%	3.0	-3	1	-9
O=C(NNC(=S)Nc1ccc(F)c(Cl)c1)c1ccccc1Br	6%	1.2	6	1	nt
CCN(CC)C(=O)CSc1nc2c(sc(=S)n2-c2ccccc2)c(=O)[nH]1	-9%	8.1	0	-3	nt
COc1ccc(C2C(C(=O)Nc3cccnc3)=C(C)Nc3nc(-c4cccs4)nn32)cc1OC (centres undefined)	-2%	0.6	4	-5	-8	Arbovirus inh repeat=-7
Cc1cc(C(F)F)n2nc(C(=O)Nc3ccc(S(=O)(=O)N4CCCC4)cc3)nc2n1	-2%	-2.1	48	1	-23
CCOC(=O)c1nn(-c2ccccc2)c(=O)c2c(N)scc12	7%	nt	1	5	-12	Arbovirus inh repeat=-3
Cn1nc(C(=O)Nc2ccc3c(c2)OCCO3)cc1C(=O)O	-1%	-2.9	-10	-1	nt
CC(C)N1CCN(Cc2cccc(-n3cccn3)c2)CC1CCO (centres undefined)	1%	-1.7	-11	-6	nt
COc1ccc(-c2noc3c2-c2nc(-c4ccc(Br)cc4)sc2CC3)cc1	-5%	-1.1	0	nt	nt
COc1ccccc1/C=C1\Cc2ccccc2C1=O	-7%	-2.4	9	nt	nt
O=S1(=O)CCOCCCN1Cc1ccccc1Br	nt	-1.6	-6	nt	nt
COc1ccc(-n2nc(C(=O)NCC(=O)NC3CCCC(C)C3C)c3ccccc3c2=O)c(OC)c1 (centres undefined)	nt	1.1	11	nt	nt
CC(=O)c1c(N2CCC(C(N)=O)CC2)nc(=S)n(-c2ccccc2)c1C	-9%	-3.4	3	10	-15
CCCC(=O)NC(c1ccccc1)c1c(O)ccc2ccccc12 (centres undefined)	nt	0.6	-6	nt	nt

Pulled one by one from above, seven records:
SMILES	Mtb growth	RecA splice inh	Mtb bLac sens	Arbovirus inh	YopH PTP inh	others
CC(=O)c1ccc(NS(=O)(=O)c2ccc3c(c2)N(C(C)=O)CCO3)cc1	nt	-0.6	1	nt	nt
CCCC(=O)NC(c1ccccc1)c1c(O)ccc2ccccc12 (centres undefined)	nt	0.6	-6	nt	nt
COc1ccc(OC)c(Nc2nc(NCCO)c3ccccc3n2)c1	nt	-3.4	4	nt	nt
COc1ccccc1/C=C1\Cc2ccccc2C1=O	-7%	-2.4	9	nt	nt
CN1C(=O)/C(=C/c2ccc3c(c2)OCO3)N=C1c1ccccc1	52%	-6.7	0	-6	2
C/C(=N\NS(C)(=O)=O)c1ccccc1	3%	0.4	8	2	-11
Cc1cc(C(F)F)n2nc(C(=O)Nc3ccc(S(=O)(=O)N4CCCC4)cc3)nc2n1	-2%	-2.1	48	1	-23

The results go on:
SMILES	Mtb growth	RecA splice inh	Mtb bLac sens	Arbovirus inh	YopH PTP inh	others
Cc1ccc(/C=N\NC(=O)Cn2c(C)nc3ccccc32)o1	0%	-1.2	-4	-4	-3
CC(=NCCN1CCOCC1)c1c(O)n(Cc2ccccc2)c(=O)[nH]c1=O	-2%	-0.7	-16	2	-7
COc1cc(C)c(CN2CCC(Oc3ccc(C(=O)N4CCCC4)cc3)CC2)cc1C	nt	-0.3	-3	nt	nt
Cc1cccc(C)c1NC(=O)C(NC=O)c1ccc(N(C)C)cc1 (centres undefined)	5%	-1.8	-11	18	-29
O=C(NCCc1cn2ccsc2n1)C1CCCCC1	1%	1.8	-2	3	-46
Cc1ccc(S(=O)(=O)Nc2c(O)ccc3ccccc23)cc1	nt	76*	5	nt	nt
COc1ccc(C2(c3ccc(OC)cc3)NC(=O)N(CC(=O)NCC(F)(F)F)C2=O)cc1	nt	0.3	-3	nt	nt
O=c1cc(-c2ccc(O)c(O)c2)oc2c(C3O[C@H](CO)[C@@H](O)[C@H](O)[C@H]3O)c(O)cc(O)c12 (some centres undefined)	-13%	-4.6	12	17	30
O=C(CSc1ccc(-c2ccco2)nn1)Nc1cccc(F)c1	nt	-2.4	-17	nt	nt
CCS(=O)(=O)Nc1cc2c3c(c1)CCN3C(=O)CC2	nt	-2.7	3	nt	nt
O=C(CSC1=NNC(c2ccccn2)S1)Nc1ccc(C(F)(F)F)cc1 (centres undefined)	-9%	0.7	20	nt	nt
Cc1cc(C)c(C(=O)COC(=O)C2CCN(c3ccc(C(F)(F)F)cn3)CC2)cc1C	nt	2.3	-8	nt	nt
O=C(Nc1ccc(C(=O)N2CCOCC2)cc1)c1cccc([N+](=O)[O-])c1	-9%	-0.2	-3	1	nt
COc1cccc(NC(=O)Nc2ccc3c(c2)OCO3)c1	nt	1.8	-16	nt	nt
CCn1cc(CN2CCCC(C(=O)c3sccc3C)C2)cn1 (centres undefined)	1%	-1.2	10	-3	nt
COc1ccc(Br)cc1CN1CCN(Cc2c[nH]c3ccccc23)CC1	nt	2.3	4	nt	nt
CCOC(=O)NC(Nc1nc2ccccc2s1)(C(=O)OCC)C(F)(F)F (centres undefined)	-10%	0.4	-4	-6	-8
O=C1C(Cl)=C(Nc2ccc(O)cc2)C(=O)c2ccccc21	-2%	95*	8	nt	nt
Cc1ccc(COC(=O)c2ccc3ccccc3n2)cc1	nt	2.8	99	nt	nt
CN(CCc1ccccn1)C(=S)NC(=O)c1ccco1	4%	-2.7	2	22	nt
O=C(CNC(=O)c1ccccc1)NCCc1ccc(O)c(O)c1	nt	-4.5	-5	nt	nt
COc1ccc(S(=O)(=O)c2c(O)c3ccc(C(=O)Nc4cccc(F)c4)cc3[nH]c2=O)cc1	nt	-2.8	0	nt	nt
O=C1Cc2cc(S(=O)(=O)N3CCN(c4cccc(Cl)c4)CC3)ccc2N1	nt	-1.2	4	nt	nt
NNc1nc2sc3c(c2c(=O)n1-c1ccccc1)CCCC3	1%	-6.2	-3	nt	nt
Cc1cccc(C(=O)OCC(=O)N(CC(C)C)c2c(N)n(Cc3ccccc3)c(=O)[nH]c2=O)c1O	nt	-0.5	-2	nt	nt

Going on with the list:
SMILES	Mtb growth	RecA splice inh	Mtb bLac sens	Arbovirus inh	YopH PTP inh	others
O=C(CSc1ccccc1C(=O)O)NCc1ccccc1	-8%	-0.9	-11	21	nt
Cc1nn(C)cc1S(=O)(=O)NCc1ccc2c(c1)OCO2	nt	-3.3	-4	nt	nt
COc1ccc(/C=C\c2nc(O)c([N+](=O)[O-])c(=O)[nH]2)cc1O	nt	-0.7	-4	nt	nt
C#CC1(NC(=O)NC(C)(C)C)CCCCC1	2%	0.5	5	1	nt
COc1ccc(CC(=O)NCc2ccccc2)cc1S(=O)(=O)N1CCOCC1	1%	1.3	-1	8	-40
CC1(C)CC(=O)C2=C(C1)N(c1cccc(Cl)c1)C(=O)NC2(C(F)(F)F)C(F)(F)F	-3%	-0.6	-3	3	-25
O=C(O)COCC(=O)Nc1ccc(OCCc2ccccc2)cc1	nt	2.6	-3	nt	nt
CC(NC(=O)C1CCN(S(=O)(=O)c2cnc[nH]2)CC1)c1ccccc1 (centres undefined)	2%	-0.9	-3	5	-37
CCN1C(=O)[C@@H]2[C@@H](c3ccc(-c4ccc(F)cc4)cc3)N3CCC[C@@]3(C(=O)OC)[C@@H]2C1=O	nt	0.3	-4	nt	nt
O=C(CSc1nnc(CNC(=O)c2ccccc2)o1)Nc1ccc2c(c1)OCO2	nt	1.6	?	nt	nt
CCCc1ncc(C(O)c2cccc3ccccc23)n1C (centres undefined)	2%	0.0	-4	1	34
COc1cccc(/C=N/N2C(=O)C3C4c5ccccc5C(c5ccccc54)C3C2=O)c1OC (centres undefined)	-15%	nt	nt	3	-2
O=C(CN(Cc1ccccc1F)S(=O)(=O)c1ccc(Cl)cc1)NCC1CCCO1 (centres undefined)	nt	0.2	6	nt	nt
Cc1nc2c(ccc3nc(NC(=O)C4CC4)sc32)s1	2%	1.7	18	-20	nt
CCOC(=O)c1c(/N=C/c2cc([N+](=O)[O-])ccc2O)sc(C)c1C	-9%	-5.2	?	-2	-15
O=C(COc1ncnc2scc(-c3ccccc3)c12)NCCN1C(=O)CSC1=O	8%	0.3	8	12	nt
COc1ccc(NC(=O)CSc2cn[nH]n2)cc1OC	nt	0.7	-5	nt	nt
CCCc1cc(=O)n2[nH]c(NCc3c(Cl)cccc3Cl)nc2n1	-8%	2.2	-6	-20	-47
Cc1ccccc1Nc1nc(N)nc(CN2CCN(c3ccccn3)CC2)n1	-2%	-0.4	-4	-12	-6
COc1cc(CNCCSc2nnnn2C)cc(OC)c1OC	10%	-1.4	-3	-4	-18
COc1cc(Cn2c(=O)c3c(OC)c(C)cnc3n(C)c2=O)cc(OC)c1	nt	0.3	-3	nt	nt
Cc1ccc(-c2c(C(=O)Nc3ccccc3C)c(C)[nH]c(=S)c2C#N)o1	-2%	nt	-4	-3	nt
O=C(Nc1nc(-c2ccccn2)cs1)c1ncc(Cl)c(Cl)c1Cl	1.5µM*	0.1	89	-19	-54
C#CCOCCOCCOCCNc1nc(N2CCN(C(=O)[C@H]([C@@H](C)CC)n3cc([C@@H](N)Cc4ccc(O)cc4)nn3)CC2)nc(N2CCN(C(=O)[C@H](Cc3ccc(O)cc3)n3cc([C@@H](N)C(C)CC)nn3)CC2)n1 (some centres undefined)	73%	0.4	94	-4	nt
Cc1ccc(-c2nnn(CC(=O)NCc3ccccc3)n2)c(-n2cnnn2)c1	1%	-0.2	-9	-5	-43

Reprinted from the part before: 3 entries; new compounds follow.
SMILES	Mtb growth	RecA splice inh	Mtb bLac sens	Arbovirus inh	YopH PTP inh	others
O=C(Nc1nc(-c2ccccn2)cs1)c1ncc(Cl)c(Cl)c1Cl	1.5µM*	0.1	89	-19	-54
C#CCOCCOCCOCCNc1nc(N2CCN(C(=O)[C@H]([C@@H](C)CC)n3cc([C@@H](N)Cc4ccc(O)cc4)nn3)CC2)nc(N2CCN(C(=O)[C@H](Cc3ccc(O)cc3)n3cc([C@@H](N)C(C)CC)nn3)CC2)n1 (some centres undefined)	73%	0.4	94	-4	nt
Cc1ccc(-c2nnn(CC(=O)NCc3ccccc3)n2)c(-n2cnnn2)c1	1%	-0.2	-9	-5	-43
Cc1ccc(C(=O)Nc2ccc(N3CCOCC3)cc2)cc1	-5%	1.3	0	-2	-43
CCCCn1c(N)c(N(CCOC)C(=O)CSCC(=O)Nc2cccc(C)c2)c(=O)[nH]c1=O	nt	-1.8	0	nt	nt
O=C(Cn1cnc2c(nnn2Cc2ccccc2)c1=O)c1ccc(Cl)cc1	-2%	-1.3	-5	-4	-16
Cc1cc(C(=O)COc2cccnc2[N+](=O)[O-])c(C)n1-c1ccccc1F	3%	-0.8	-3	nt	nt
Cn1nc(C(C)(C)C)cc1C(=O)O	5%	3.9	7	-3	nt
O=[N+]([O-])c1cccc(S(=O)(=O)N2CCN(S(=O)(=O)N3CCOCC3)CC2)c1	nt	-0.6	9	nt	nt
COC(=O)CCNCCSc1nnc(-c2ccco2)n1Cc1ccccc1	-4%	-0.4	0	nt	nt
CCOC(=O)N1CCN(C(=O)C2CCN(CC3CCCCC3)CC2)CC1	-3%	0.8	-4	2	-14
Cc1cc([N+](=O)[O-])nn1CCCC(=O)Nc1c(C)n(C)n(-c2ccccc2)c1=O	10%	-0.5	2	6	nt
O=C(O)CC1(Cc2nc(-c3cccs3)no2)CCCC1	-1%	-2.0	6	11	-46	Arbovirus inh repeat=8
Cc1nn(CC(=O)N2CCC(N3CCCCC3)CC2)c(=O)c2c1sc1ccccc12	nt	-0.8	-3	nt	nt

An excerpt; rates above refer to the full screens.
